Source: PubChem BioAssay
ALR H2O2 inh: inhibitors of human ALR sulfhydryl oxidase, primary screen, biochemical, H2O2 detection, HRP-luminol luminescence, single point; AID 485317, 2010; hit rate 3.8% among 290,000; purified ALR, DTT oxidation; FAD-linked sulfhydryl oxidase ALR (Homo sapiens), P55789; inhibition, % (no concentration beside the values);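 active = mean and each replicate at 75% or more; inconclusive = only one of the two met; inactive = neither met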;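 also: stock transfer was 7.5 nL into about 7.5 µL; 0% = neutral wells and 100% = wells with inactivated enzyme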
A1 inh: caspase 3/7 activation in MEF A1-2A-BIM cells, primary screen, A1 inhibitor project, cell-based, luminescence, HTS; caspase activation, % (concentration not given with the values); hit rate 0.066% among 330,000; AID 2462, 2010; Caspase-Glo 3/7 luminescence, 3 h; percent of clofoctol response, vehicle zero;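 active = over half of replicate activation scores above 10%, or exactly half above 10 with the replicate mean above 10; inconclusive = replicate mean below 10 yet half the replicates above 10; inactive = over half of replicates below 10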;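 also: wells of about 30 µL received 50 nL stock; many hits fall short of the cut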
LANA-H2A inh: blockers of LANA interaction with H2A/H2B – biochemical, FP readout, HTS, primary screen. Protein LANA1 (Human herpesvirus 8 type P (isolate GK18)), Q9QR71. hit rate 0.6% among 320,000. inhibition, % (concentration not given with the values). cell-free LANA-H2A/H2B peptide, fluorescence polarization; in the data active = inhibition mostly above about 10%, no sharp cut-off; inactive = mostly below about 6.7%;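 also: stock transfer was 7.5 nL into about 10 µL; 0% = median of vehicle wells and 100% = median of positive control wells; one replicate is shown; the record names a cut of 25% in any replicate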
Target sequence (Q9QR71 whole entry, looked up): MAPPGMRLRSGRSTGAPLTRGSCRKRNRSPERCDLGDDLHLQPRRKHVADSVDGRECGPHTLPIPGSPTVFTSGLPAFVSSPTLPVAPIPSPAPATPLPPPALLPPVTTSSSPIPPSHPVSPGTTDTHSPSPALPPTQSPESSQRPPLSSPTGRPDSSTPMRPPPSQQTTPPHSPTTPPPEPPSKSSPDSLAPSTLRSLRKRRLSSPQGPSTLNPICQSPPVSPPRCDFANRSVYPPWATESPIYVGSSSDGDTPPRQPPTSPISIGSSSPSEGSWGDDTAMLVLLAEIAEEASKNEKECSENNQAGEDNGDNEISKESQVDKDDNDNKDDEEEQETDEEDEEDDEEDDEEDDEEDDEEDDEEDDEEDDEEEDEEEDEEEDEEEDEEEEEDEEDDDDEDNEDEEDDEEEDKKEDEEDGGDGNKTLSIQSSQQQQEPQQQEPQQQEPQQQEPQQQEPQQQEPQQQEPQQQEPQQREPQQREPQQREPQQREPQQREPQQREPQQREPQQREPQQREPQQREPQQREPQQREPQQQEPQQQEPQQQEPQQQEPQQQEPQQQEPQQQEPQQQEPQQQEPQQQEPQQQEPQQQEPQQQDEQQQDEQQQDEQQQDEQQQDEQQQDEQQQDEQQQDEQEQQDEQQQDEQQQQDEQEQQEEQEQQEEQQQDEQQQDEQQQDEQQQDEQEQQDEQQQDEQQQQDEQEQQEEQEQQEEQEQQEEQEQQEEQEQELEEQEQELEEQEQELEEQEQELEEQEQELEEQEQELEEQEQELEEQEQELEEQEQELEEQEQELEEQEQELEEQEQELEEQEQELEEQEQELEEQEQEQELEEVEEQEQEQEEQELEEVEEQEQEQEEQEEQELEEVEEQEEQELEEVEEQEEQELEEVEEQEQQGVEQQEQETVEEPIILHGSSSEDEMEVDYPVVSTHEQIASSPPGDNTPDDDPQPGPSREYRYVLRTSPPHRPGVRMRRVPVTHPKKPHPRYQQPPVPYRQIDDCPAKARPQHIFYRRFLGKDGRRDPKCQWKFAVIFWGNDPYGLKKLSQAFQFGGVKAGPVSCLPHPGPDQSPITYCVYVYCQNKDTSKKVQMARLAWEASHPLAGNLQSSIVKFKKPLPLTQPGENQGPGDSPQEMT
B2AR ag: beta2AR agonists driving receptor internalization, primary screen, cell-based, FAP fluorogen, flow cytometry. Am2.2-beta2AR cells; reference of the scale not given here. Beta-2 adrenergic receptor (Homo sapiens), P07550. hit rate 0.43% among 340,000. AID 504454, 2011. response, % (no concentration beside the values);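 active = response above a set limit, near 3 SD of response in nonfluorescent compounds, cut at about 42% in these data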;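 also: stock transfer was 100 nL into about 11 µL; a reference agonist was the positive control; negative values mostly stem from fluorescent compounds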
Beta apoptosis: inhibitors of cytokine-induced beta cell apoptosis, primary screen, luminescence; INS-1E cytokine-induced death, ATP luminescence, 48 h; percent of positive-control rescue, neutral wells zero; protection from apoptosis, % (no concentration beside the values); hit rate 0.8% among 300,000;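 active = all replicates at 75% or more, or half of them and the mean; inconclusive = half reach 75% but not the mean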;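 also: 0% = cytokine-treated negative control wells and 100% = positive control rescue; higher means more ATP so stronger rescue from cytokine killing; wells of about 40 µL received 100 nL stock; the first replicate is given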
rRNA inh HTS: reduced GFP signal of wild-type E. coli, primary screen, bacterial rRNA inhibitor project, GFP/RFP fluorescence, OD600, single point. E. coli WT GFP vs humanized-ribosome RFP mutants, 24 h; stronger effect = lower value; DMSO median 0, no signal -100. GFP signal change (wild-type ribosome), % (test concentration not listed). hit rate 1.6% among 350,000;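 active = significant combined selectivity score with lowered wild-type GFP, culture density cut under 30%, mutant RFP and density less affected; inactive = any of these conditions unmet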; also: one replicate is shown; some compounds called inactive have numbers as strong as hits
T cruzi repl: inhibitors of intracellular T. cruzi growth, primary screen, luminescence, NIH3T3 host cells; T. cruzi beta-gal in NIH3T3, 90 h; inhibition, % (no concentration beside the values); hit rate 1.4% among 300,000; AID 1885, 2009;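 active = mean inhibition across valid replicates above about 55%, limit read from the data; inconclusive = mean below that limit but half or more replicates reach it; inactive = mean below it, under half of replicates reach it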;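 also: signal also drops with host cell toxicity which is not excluded here; 0% = plate median of DMSO wells and 100% = zero luminescence signal; higher percent means less beta-gal luminescence so fewer parasites; stock transfer was 50 nL into about 50 µL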
Calb FLC: C. albicans growth inhibition with fluconazole, primary screen, CaCi-2 strain, Alamar Blue fluorescence | AID 1979, 2009 | growth inhibition, % (no concentration beside the values) | C. albicans CaCi-2 (fluconazole-resistant clinical isolate) + fluconazole, 48 h | hit rate 0.57% among 300,000;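 active = most replicates above 75%; inconclusive = exactly half above 75%; inactive = most below 75%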;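 also: all wells also contain fluconazole at 8 µg/ml as a sub-toxic cotreatment; 0% = median of DMSO wells and 100% = median of geldanamycin control wells; wells of about 8 µL received 7.5 nL stock; the first replicate is given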
rRNA inh HTS OD600: further read-out of rRNA inh HTS, marked with its call; OD600 change, %; measured here: OD600 growth;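 optical density of the mix in the first replicate; 0 = DMSO median and -100 = no signal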
rRNA inh HTS RFP: also measured in rRNA inh HTS; calls as there; RFP signal change, %; measured here: RFP humanized mutant strains;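 first replicate; 0 = DMSO median and -100 = no signal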
The depositor's hits bear a star; u = inconclusive; x = not tested or not shown. Some of the compounds tested (hit frequency here may not be typical).

Order of results: Beta apoptosis	B2AR ag	rRNA inh HTS	T cruzi repl	rRNA inh HTS RFP	Calb FLC	LANA-H2A inh	A1 inh	ALR H2O2 inh	rRNA inh HTS OD600
- Cc1nn(CC(=O)Nc2ccc(S(=O)(=O)N(C)C)cc2)c(C)c1[N+](=O)[O-]
    -4	-6	-5	-24	-3.5	-6	3.4	2.3	x	-12
- Cc1ccc(C)c(S(=O)(=O)NC(C)C(=O)NCc2ccccn2)c1 (stereo unspecified)
    x	-1	13	0	1.7	-5	0.5	-0.4	10	6
- COc1ccccc1C(=O)OC(C)CN1CCN(C)CC1 (stereo unspecified)
    x	-2	18	9	1.0	-4	2.1	0.0	-7	8
- CC(C)CNc1ncnc2c1cnn2Cc1ccccc1Cl
    3	2	-1	8	-2.4	1	3.1	0.6	-6	-3
- O=C(COC(=O)CC1CC2CCC1C2)Nc1cccc(S(=O)(=O)NC2=NCCCCC2)c1 (stereo unspecified)
    -1	0	-23	2	6.3	2	-3.8	1.6	2	-28
- Cc1sc2c(c1C)CN(C(C)(C)C)CN2C(=O)c1ccccc1
    -7	-8	x	2	x	-6	-3.5	-0.4	6	x
- COc1ccccc1C(=O)NC(CCSC)C(=O)OCC(=O)NC(=O)NCc1ccco1 (stereo unspecified)
    0	10	x	-7	x	5	-1.7	-0.1	-7	x
- Cc1ncc(CO)c(/C=N/NC(=O)c2cc3c(s2)CCCC3)c1O
    88*	-2	-29	5	8.8	30	0.1	0.8	23	-51
- O=C(CN(Cc1cccs1)S(=O)(=O)c1ccc(S(=O)(=O)N2CCCCC2)cc1)Nc1ccccc1
    -5	0	14	-2	3.9	2	-7.0	-0.9	0	3
- COc1cc(C=O)cc(Br)c1OCC(N)=O
    -6	7	4	-6	-0.1	-22	-10	1.1	-6	4
- COc1ccc(/C=N/NC(=O)c2cnccn2)c(OC)c1OC
    0	-5	5	-5	-0.7	1	-0.1	-0.2	-7	9
- COCc1[nH]nc2c1C(c1ccccc1F)C(C#N)=C(N)O2 (stereo unspecified)
    0	0	x	-17	x	6	-1.4	-0.2	x	x
- O=C(NN=C1CCCCCCCCCCC1)c1ccccc1F
    -4	23	x	18	x	-4	-3.8	0.1	-1	x
- CCc1ccc(C2CC(c3ccc(Cl)cc3)n3nc(N)nc3N2)cc1 (stereo unspecified)
    -11	0	-10	22	14	2	5.3	0.1	-11	-37
- N[C@@H](Cc1ccccc1)c1nnc2sc(SCc3ccccc3)nn12
    -2	-8	x	-5	x	9	3.5	0.7	x	x
- O=C(O)c1ccc(-c2ccc(OS(=O)(=O)c3ccccc3F)cc2)cc1
    -1	8	0	18	-1.2	3	-2.1	0.0	x	6
- CC(=O)N/C(=C\c1ccccc1)C(=O)OCc1cccc(S(=O)(=O)N(C)C)c1
    4	-9	8	-9	-0.6	2	1.9	-0.3	-3	-5
- O=C(CCC1CCCN(C(=O)c2ccncc2)C1)NCc1ccc(F)c(F)c1 (stereo unspecified)
    -1	15	6	-3	0.4	-6	0.1	0.2	-25	11
- CCOc1ccc(OCCC(=O)OCC(=O)Nc2ccc(Cl)cn2)cc1
    -4	-9	-1	-2	-0.2	2	-0.2	0.5	x	-2
- CN(C)S(=O)(=O)c1cccc(COc2cccnc2[N+](=O)[O-])c1
    3	-6	2	3	-1.7	-9	5.2	0.4	-3	-3
- Cc1c(C)c2ccc(OCC(=O)N(C)C3CCS(=O)(=O)C3)c(C)c2oc1=O (stereo unspecified)
    1	-3	6	-7	-2.5	-3	-4.9	0.0	-3	13
- Cc1ccsc1C1C(C#N)=C(N)OC2=C1C(=O)CC(C)C2 (stereo unspecified)
    -5	5	12	4	1.1	2	-0.9	0.7	-2	9
- Cc1cc(C)nc(NS(=O)(=O)c2ccc(N3C(=O)C4CC=C(Cl)CC4C3=O)cc2)n1 (stereo unspecified)
    -3	-4	x	x	x	x	-2.5	-0.1	-5	x
- COc1cccc(NC(=O)NC2CCCCC2C)c1 (stereo unspecified)
    0	-2	3	6	-0.2	-6	-4.4	-0.2	4	-3
- CC1C(=O)N2CCCc3cc(NC(=O)COc4ccc(Cl)cc4)cc1c32 (stereo unspecified)
    2	5	-12	17	0.1	-3	5.7	-0.3	-5	-24
- CC(C)[C@H](NS(=O)(=O)c1ccccc1)C(=O)OCC(=O)Nc1ccccc1Sc1ccccc1
    -3	8	x	-3	x	-9	0.5	1.0	-40	x
- Cc1nc(N)c(Cc2ccccc2F)c(N)n1
    -10	7	-5	-3	-2.7	0	2.3	-1.3	-1	-1
- O=C(O)CC(NC(=O)c1ccncc1)c1ccccc1 (stereo unspecified)
    x	1	9	-16	-1.0	-13	-0.3	0.5	-9	7
- Nc1nc2c(c(=O)[nH]1)C(c1ccccc1)C1=C(N2)c2ccccc2C1=O (stereo unspecified)
    -2	-5	-3	-12	0.5	-7	6.2	-0.2	8	-2
- CN1CCc2c(sc3c2c(NCc2ccco2)nc2nnnn23)C1
    4	-35	x	31	x	-5	1.2	0.5	x	x
- CCOC(=O)c1cnc(-c2ccccc2)nc1N
    -2	3	-1	3	-1.1	-40	-4.7	-6.7	-3	-5
- CCN(CC)CCCN1C(=O)c2oc3ccccc3c(=O)c2C1c1cccs1 (stereo unspecified)
    -1	x	x	-1	x	1	-5.6	x	4	x
- COc1ccc(S(=O)(=O)N(C)c2ccc(OCC(=O)Nc3cc(C)on3)cc2)cc1
    -5	-10	x	-3	x	6	0.1	-0.6	-4	x
- Cc1ccccc1CN(C)CC(=O)NC(C)CCc1ccccc1 (stereo unspecified)
    -10	1	-21	16	2.2	u	3.7	0.1	-41	-33
- C=CCOc1c(CNc2nccs2)cccc1OCC
    3	3	x	11	x	-13	-1.7	0.2	33	x
- COCCCNC(=S)NCCCNc1nc2cc(C)cc(C)c2cc1C#N
    0	12	7	33	0.5	18	-3.9	0.6	-1	4
- Cn1c(=O)[nH]c(NC2CCCCC2)c(N=O)c1=O
    -8	-3	x	8	x	9	6.2	0.3	7	x
- CN(C)c1cccc(O)c1
    -5	15	2	x	30	x	-0.7	-0.4	26	2
- CCOC(=O)c1[nH]c2ccc(Cl)cc2c1-c1ccccc1
    2	4	x	21	x	-8	-3.2	0.1	-33	x
- Cc1ccc2c(c1)c1c3n2CC(=C2C(=O)OC(C)(C)OC2=O)NC3CCC1 (stereo unspecified)
    4	9	-8	6	18	-8	-0.7	1.7	20	-10

A draw from above in order of length of the SMILES, low to high.
Order of results: Beta apoptosis	B2AR ag	rRNA inh HTS	T cruzi repl	rRNA inh HTS RFP	Calb FLC	LANA-H2A inh	A1 inh	ALR H2O2 inh	rRNA inh HTS OD600
- Cc1nc(N)c(Cc2ccccc2F)c(N)n1
    -10	7	-5	-3	-2.7	0	2.3	-1.3	-1	-1
- CCOC(=O)c1[nH]c2ccc(Cl)cc2c1-c1ccccc1
    2	4	x	21	x	-8	-3.2	0.1	-33	x
- COCCCNC(=S)NCCCNc1nc2cc(C)cc(C)c2cc1C#N
    0	12	7	33	0.5	18	-3.9	0.6	-1	4
- CC(C)[C@H](NS(=O)(=O)c1ccccc1)C(=O)OCC(=O)Nc1ccccc1Sc1ccccc1
    -3	8	x	-3	x	-9	0.5	1.0	-40	x

Carrying on.
Order of results: Beta apoptosis	B2AR ag	rRNA inh HTS	T cruzi repl	rRNA inh HTS RFP	Calb FLC	LANA-H2A inh	A1 inh	ALR H2O2 inh	rRNA inh HTS OD600
- O=C(COC(=O)Cc1cccs1)Nc1ccccc1F
    x	-8	x	-8	x	-15	0.9	-0.3	3	x
- CN(C)c1ccc(/C=N/NC(=O)CNC(=O)c2ccco2)cc1
    x	-3	6	-12	0.7	-9	-0.8	u	54	7
- CC(C)(C)C(=O)Nc1ccccc1C(=O)Nc1ccncc1
    -3	-1	x	-7	x	-4	-4.1	-1.4	-2	x
- CC(C)CC1CCCCC1OC(=O)CN1CCCCC1 (stereo unspecified)
    -4	3	15	4	1.9	-26	-1.4	0.1	-10	7
- O=C(Nc1cc(Cl)cc(Cl)c1)C1CC(=O)N(C2CCCC2)C1 (stereo unspecified)
    x	2	-1	1	0.5	-9	3.1	-0.6	-20	-4
- Cc1ccc(NC(=O)Nc2nnc(Cc3ccc(F)cc3)s2)cc1
    -7	2	7	-27	-1.1	5	-0.3	0.0	-16	5
- N#Cc1ccccc1CSCCNC(=O)Cc1c(F)cccc1Cl
    3	0	-2	12	1.2	6	4.0	-0.2	-26	-4
- Cc1c(CC(Cl)(Cl)Cl)c2c(n1O)CC(C)(C)CC2=O
    3	6	-32*	-9	-8.3*	18	-4.0	0.0	36	8.0*
- CC(C)Oc1ccc(-c2nn(-c3ccccc3)cc2/C=c2\sc3ncnn3c2=O)cc1
    -6	x	x	x	x	x	-3.1	-0.1	39	x
- CCN1CCN(C(=O)c2ccc3c(c2)N(Cc2ccccc2)C(=O)c2ccccc2S3(=O)=O)CC1
    -2	2	0	-4	-7.6	11	-4.3	0.6	-2	-12
- O=C(NN1CCOCC1)c1cn(-c2ccccc2)nc1-c1cccs1
    -1	-19	1	-6	-3.6	3	4.3	-0.5	x	-5
- CCC(c1nnnn1C1CCCC1)N1CCN(c2cccc(OC)c2)CC1 (stereo unspecified)
    x	-1	0	52	-0.9	0	1.4	-0.6	98*	-6
- O=C(CN1CCCCCC1)OCCN=C1NS(=O)(=O)c2ccccc21
    -6	-3	x	-12	x	7	-3.6	-0.1	-2	x
- COc1ccc(OC)c2c1C(=O)C(Cl)=C(Cl)C2=O
    114*	97*	-4	11	9.8	-3	-5.1	-2.8	1	-4
- NC(=O)c1nsc(C(=O)N(CC(=O)NCc2ccco2)c2ccccc2F)c1N
    -8	9	x	-25	x	-20	0.8	0.4	9	x
- COc1ccc(-n2c(SCC(=O)OC(C)C)nnc2-c2ccccn2)cc1
    0	-5	x	-4	x	16	2.3	1.0	-1	x
- Cn1nc2c(c1C(=O)N1CCCC(C(=O)c3cc(F)ccc3F)C1)CCCC2 (stereo unspecified)
    -5	-4	1	-1	-0.8	-4	-3.3	0.6	0	-7
- COC(=O)c1ccc(N2C(=O)c3ccc(OC)c(OC)c3C2=O)cc1
    5	-10	x	-16	x	-2	0.6	0.5	-2	x
